D2 agonist = Beta-Arrestin HTS for Positive Allosteric Modulators of the Human D2 Dopamine Receptor: Agonists. DiscoveRx PathHunter D2 beta-arrestin, luminescence, 90 min; 100% = 57 uM dopamine signal. activation, % (test concentration not listed). 360,000 compounds, 0.084% hits. AID 624465, 2012. D(2) dopamine receptor (Homo sapiens), P14416; in the data active = activation above about 40%; inconclusive = about 15% to 40%; inactive = below about 15%; also: compound concentration not given in the record; the text of the record calls up to 30% inactive
Target sequence (P14416 whole entry, looked up): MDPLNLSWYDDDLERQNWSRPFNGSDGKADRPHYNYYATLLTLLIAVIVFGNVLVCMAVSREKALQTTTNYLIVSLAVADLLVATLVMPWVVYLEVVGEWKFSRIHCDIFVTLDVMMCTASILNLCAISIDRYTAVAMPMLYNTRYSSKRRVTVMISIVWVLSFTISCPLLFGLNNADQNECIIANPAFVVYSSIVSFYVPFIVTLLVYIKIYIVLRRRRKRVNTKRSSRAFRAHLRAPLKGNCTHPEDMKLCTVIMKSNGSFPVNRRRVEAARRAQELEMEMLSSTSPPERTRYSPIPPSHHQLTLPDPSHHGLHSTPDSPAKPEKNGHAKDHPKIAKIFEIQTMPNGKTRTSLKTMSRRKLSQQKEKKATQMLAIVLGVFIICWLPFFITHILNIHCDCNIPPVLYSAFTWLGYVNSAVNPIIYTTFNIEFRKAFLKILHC
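DiscoveRx PathHunter D2 beta-arrestin cells (2,100/well) attached overnight, then compound-stimulated 90 min at 37 C in HBSS/10 mM HEPES/0.1% Tween-20 buffer; beta-galactosidase complementation read by luminescence after 1 h at ambient temperature. Dopamine 57 uM final (EC100) as control.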
D2 PAM = Beta-Arrestin HTS for Positive Allosteric Modulators of the Human D2 Dopamine Receptor: Potentiators; D(2) dopamine receptor (Homo sapiens), P14416; DiscoveRx D2 beta-arrestin cells, luminescence, 90 min; 100% = 57 uM dopamine signal; potentiation, % (test concentration not listed); 360,000 compounds, 0.23% hits; active = potentiation of 50% or more; inconclusive = 30% to 50%; inactive = 30% or less;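 also: compound concentration not given in the record; tested on top of an EC20 dose of dopamine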
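PathHunter beta-arrestin assay in DiscoveRx D2 cells. Compounds were added with an EC20 of dopamine (50 nM final) for 90 min at 37 deg C. Luminescence was read 1 h after detection reagent, with 57 uM dopamine as the EC100 control.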
CtBP-E1A blk = qHTS Assay for Inhibitors of the CtBP/E1A Interaction; CtBP / adenovirus E1A interaction (AlphaScreen); 340,000 compounds, 0.49% hits; activity change, % (no concentration beside the values); AlphaScreen GST-E1A/His-CtBP binding, 1536-well; active compounds read low; control for the full effect not named in the record; AID 651724, 2012; in the data active means activity change below about -65%; inconclusive means about -30% to -65%; inactive means above about -30%; also: % is scaled to controls: 0 for no effect and ±100 for the full control effect
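AlphaScreen with 125 nM GST-E1A and 125 nM His-CtBP (5X stocks) in Tris pH 8.0, 300 mM NaCl, BSA, Tween 20, TCEP. Compounds preincubated 2 h at 37 deg C, then glutathione donor/nickel acceptor beads added for 1 h at 37 deg C in dark.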
TRPML1 agonist = qHTS for Agonists of the Human Mucolipin Transient Receptor Potential 1 (TRPML1). activation, % (concentration not given with the values). 410,000 compounds, 0.12% hits. AID 624414, 2012. TRPML1-expressing cells, Ca2+ dye fluorescence, FDSS; host cell line not named in the record; reference of the full effect not given here; in the data active = activation above about 50%; inconclusive = about 30% to 50%; inactive = below about 30%; also: 0% is about no effect; the text of the record puts the active cut at 80%
Target sequence (Q9GZU1 whole entry, looked up): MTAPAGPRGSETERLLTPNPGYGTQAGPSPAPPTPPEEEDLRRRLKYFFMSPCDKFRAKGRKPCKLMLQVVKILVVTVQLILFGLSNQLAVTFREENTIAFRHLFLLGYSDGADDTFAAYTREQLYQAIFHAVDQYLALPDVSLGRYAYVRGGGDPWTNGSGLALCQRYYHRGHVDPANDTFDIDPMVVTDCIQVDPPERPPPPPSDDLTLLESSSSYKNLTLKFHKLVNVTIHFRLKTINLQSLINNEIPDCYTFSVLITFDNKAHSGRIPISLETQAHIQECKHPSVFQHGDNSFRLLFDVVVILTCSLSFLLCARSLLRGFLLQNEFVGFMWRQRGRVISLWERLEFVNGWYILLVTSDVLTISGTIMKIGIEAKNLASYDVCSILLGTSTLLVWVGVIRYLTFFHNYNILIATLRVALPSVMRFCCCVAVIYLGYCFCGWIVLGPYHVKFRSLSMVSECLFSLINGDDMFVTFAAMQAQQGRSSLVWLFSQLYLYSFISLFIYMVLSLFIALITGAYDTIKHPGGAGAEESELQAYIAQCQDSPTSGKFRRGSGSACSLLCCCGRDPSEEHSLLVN
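Tet-induced TRPML1-DL cells, 1,500 per well, cultured overnight, were loaded with a no-wash Ca2+ dye for 45–90 min. Calcium fluorescence was recorded on the FDSS for 110 s after compound addition, before the EC80 agonist (4 uM 54-4) was added.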
PINK1 modulator = A Quantitative High throughput Screen to Identify Chemical Modulators of PINK1 Expression; Potency, µM (series often up to 76.6 µM), inactives show at the top dose activation (PINK1 increase), usual class: activators; 410,000 compounds, 0.2% hits; PINK1 immunofluorescence, high-content cytometry, 24 h; active = well fitted activation curve with a large enough effect; inconclusive = small, poorly fitted or top-dose-only effect; inactive = flat fitted curve, though single readings scatter; cell line not stated here;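 also: potency is read from the fitted curve at half-maximal effect; % of control where 0% means no effect; nearly all actives have a fitted effect of over 65% in size; a mitochondrial uncoupler was the plate control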
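Compound titrations (5 concentrations, 24 h) on a stable cell line; DMSO and CCCP controls. Endpoint: fixed-cell PINK1 immunofluorescence with mitochondrial, cell and nuclear markers, scanned by microplate cytometer.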
Six1-Eya2 inh = qHTS Assay for Inhibitors of the Six1/Eya2 Interaction; activity change, % (concentration not given with the values); 360,000 compounds, 0.56% hits; AlphaScreen GST-Six1/His-Eya2 binding, biochemical; active compounds read low; control for the full effect not named in the record; Homeobox protein SIX1 (Homo sapiens) + Protein phosphatase EYA2 (Homo sapiens), …; in the data active = activity change below about -65%; inconclusive = about -30% to -65%; inactive = above about -30%; also: % is scaled to controls: 0 for no effect and ±100 for the full control effect
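Homogeneous AlphaScreen proximity assay pairing GST-Six1 with His-tagged Eya2 (added as 5X mix: 250 nM and 500 nM) in 50 mM Tris pH 8.0, 300 mM NaCl, 1 mM TCEP. Glutathione donor and nickel acceptor beads; 1 h, 37 °C, dark.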
* marks the source's active call; other numbers are inactive results; ? = inconclusive; · = no result given; & = joins results of further samples; [ ] = another dose, or the depositor's remark.

A first look, four compounds:
SMILES	D2 agonist	D2 PAM	CtBP-E1A blk	TRPML1 agonist	PINK1 modulator	Six1-Eya2 inh
COc1ccc(/C(N)=N/OC(=O)c2ccc3c(c2)OCO3)cc1OC	12	84*	-4	1.0	·	-13
Cn1nnc2cc(C(=O)Nc3ccccc3)ccc21	-3.1	-2	·	1.6	5.4%	-1
Cc1ccc(CS(=O)(=O)CCC(=O)NCc2cccs2)cc1	-2.6	3	3	-0.4	4.0%[38.3 µM]	-1
COc1ccc(C(CNC(=O)C(C)Oc2ccc(Br)cc2)N2CCCCC2)cc1 (configuration not stated)	-5.0	-6	-6	0.8	1.2%	-7

The listing, repeating the preview:
SMILES	D2 agonist	D2 PAM	CtBP-E1A blk	TRPML1 agonist	PINK1 modulator	Six1-Eya2 inh
COc1ccc(/C(N)=N/OC(=O)c2ccc3c(c2)OCO3)cc1OC	12	84*	-4	1.0	·	-13
Cn1nnc2cc(C(=O)Nc3ccccc3)ccc21	-3.1	-2	·	1.6	5.4%	-1
Cc1ccc(CS(=O)(=O)CCC(=O)NCc2cccs2)cc1	-2.6	3	3	-0.4	4.0%[38.3 µM]	-1
COc1ccc(C(CNC(=O)C(C)Oc2ccc(Br)cc2)N2CCCCC2)cc1 (configuration not stated)	-5.0	-6	-6	0.8	1.2%	-7
O=C1CN(C(=O)c2ccccc2C(=O)O)c2ccccc2N1	3.4	3	0	1.2	-0.8%	0
COCCNC(=O)CSc1n[nH]c(=O)n1CCc1ccccc1	0.3	-7	-2	·	-1.2%	0
O=S(=O)(c1ccc(Cl)cc1)N1CCC2(CC1)OCCO2	-0.9	6	8	-0.1	0.6%	3
Cc1ccccc1NC(=S)N(CCN1CCCCC1)Cc1ccco1	-0.4	-17	-1	-0.6	0.7%	-7
CCN1CCN(CC2COc3ccccc3O2)CC1 (configuration not stated)	7.6	-13	4	2.7	-2.0%	14
CCC(C)[C@H]1COCCS(=O)(=O)N1Cc1ccccc1F (some centres not stated)	-3.0	-13	·	0.9&-1.2	0.0%	19
CC(Sc1nnc(-c2ccc(C(C)(C)C)cc2)n1C)C(N)=O (configuration not stated)	-4.2	-11	0	0.6	-0.5%	0
CN(C)S(=O)(=O)c1ccc(N2CCCC2)c(C(=O)NNC(=O)c2ccccc2)c1	-5.6	-5	-25	0.0	2.1%	-11
COc1ccccc1N1CCN(C(=O)CSc2nnc(NC(=O)C(C)C)s2)CC1	-0.8	7	-14	0.2	-0.7%	-5
Cc1nn(CC(=O)NNC(=S)NCC2CCCO2)c(C)c1Br (configuration not stated)	-5.2	-19	3	0.2	0.2%	4
Cc1ccc(O)c(NC(=O)CSc2n[nH]c(-c3ccccc3)n2)c1	1.6	-3	-2	1.8	2.7%	-3
Cc1noc(C)c1COC(=O)c1cnc(Cl)c(Cl)c1	3.9	1	6	1.7	2.8%	9
CC(C)c1nc2n[nH]c(N)c2c2c1CCCC2	-3.5	-8	-1	0.0	-1.0%	2
CSC1=NSC2=NC(=O)/C(=C/c3coc4ccccc4c3=O)C(=N)N12	0.7	-7	-25	77*	9.2%	-27
CCC(C)(C)NC(=O)C(c1ccco1)N(C(=O)CNC(=O)c1cccs1)c1cccnc1 (configuration not stated)	-1.7	6	17	-0.5	-0.8%	-1
CCOC(=O)c1cc(S(=O)(=O)NC2CCC(C)CC2)cn1C (configuration not stated)	3.1	1	4	0.1	1.0%	-2
COc1ccc(OC)c(NC(=O)CN(c2ccc(C)cc2)S(=O)(=O)c2c(C)n[nH]c2C)c1	2.7	-13	-8	0.6	-0.4%	-15
Cc1ccccc1C(=O)NCC(=O)NNC(=O)CCN1CCN(c2ccccc2)CC1	14	-22	-1	-0.5	-0.4%	3
COc1cc(CN2C(=O)C(C)ON=C2c2cccs2)cc(OC)c1 (configuration not stated)	8.5	-3	7	-1.2	0.1%	1
CC1(C)CC(=O)c2c(O)cc(OCc3ccc([N+](=O)[O-])cc3)cc2O1	-2.1	-15	5	-0.2	10%	1
Cc1ccc(S(=O)(=O)N2CCOCC2)cc1NC(=O)COC(=O)C1(C)CC1(Cl)Cl (configuration not stated)	7.2	-4	·	0.1	1.0%	7
CC(Sc1nnnn1C)C(=O)Nc1ccccc1 (configuration not stated)	-3.3	2	32	0.6	-1.4%	16
CCOc1ccc(NC(=O)N2CCN(S(C)(=O)=O)CC2)cc1	0.4	-19	-11	-0.6	0.4%	20
CCCN(CCO)Cc1ccc(Cl)c(Cl)c1	0.5	-13	-5	0.7	-0.9%[38.3 µM]	3
CCS(=O)(=O)N1CCN(C(=O)c2ccc3nc(C)c(N(C)C(=O)CCc4ccccc4)n3c2)CC1	3.1	-3	1	-0.8	1.5%	1
Cc1ccc(OCCN2C(=O)CSC2=O)cc1	-2.3	-6	7	-0.8	-1.1%	1
O=S(=O)(Nc1ccc(S(=O)(=O)N2CCCCCC2)cc1)c1cccs1	-1.8	8	2	0.7	·	3
O=C(Nc1cccc(-c2ccc(N3CCOCC3)nn2)c1)c1cccc(Cl)c1	8.6	-9	1	-0.9	6.2%	-6
Cc1ccc(NS(=O)(=O)c2ccc3c(c2)n(C)c(=O)c(=O)n3C)c(C)c1	-8.7	-7	-9	-1.2	-1.3%	8
CCN1CCc2nc(N)sc2C1	6.1	5	-4	1.0	-0.5%	-6
O=C(COC(=O)c1cccnc1Cl)Nc1ccccc1OC(F)F	1.2	-7	4	-0.5	2.5%	9
O=c1cc(CSc2ccc(Cl)cc2)nc(-c2ccccc2)[nH]1	-6.8	-6	1	1.3	2.1%	9
O=C(N1CCOCC1)N1CCN(S(=O)(=O)N2CCOCC2)CC1	1.6	1	4	0.4	1.1%	10
COCCN(C(=O)CSCC(=O)Nc1ccc(C)cc1)c1c(N)n(CC(C)C)c(=O)[nH]c1=O	1.0	-9	-4	1.4	-0.5%	5
CC(C)CN(C(=O)CN1CCN(c2ccccc2O)CC1)c1c(N)n(CC(C)C)c(=O)[nH]c1=O	1.4	9	-2	0.7	0.0%	-2
Cc1ccccc1NS(=O)(=O)c1nnc(NC(=O)C(C)C)s1	1.0	-3	·	1.0	-0.3%	2
CCSc1nc2sc3c(c2c(=O)n1-c1ccccc1)CCN(C)C3	2.4	-2	·	-0.6	-1.3%	-9
COc1ccc2c(C(=O)CN3CC(C)OC(C)C3)c[nH]c2c1 (configuration not stated)	-1.6	-1	-1	0.5	0.6%	-1
CCOC(=O)Cc1ncccc1C(=O)Nc1ccc(OC(F)(F)F)cc1	-7.0	-26	21	0.9	4.7%	0
Cc1c(SCCO)c(=O)[nH]c2cc3c(cc12)OCO3	0.4	-4	6	-0.1	-6.5%[38.3 µM]	0
O=C(C1CCCO1)N1CCN(C(=O)C23CC4CC(CC(C4)C2)C3)CC1 (configuration not stated)	-1.6	9	1	-0.1	-0.8%	0

3 compounds out of the list above, arranged by the number in D2 agonist, descending:
SMILES	D2 agonist	D2 PAM	CtBP-E1A blk	PINK1 modulator	Six1-Eya2 inh
CCS(=O)(=O)N1CCN(C(=O)c2ccc3nc(C)c(N(C)C(=O)CCc4ccccc4)n3c2)CC1	3.1	-3	1	1.5%	1
COCCNC(=O)CSc1n[nH]c(=O)n1CCc1ccccc1	0.3	-7	-2	-1.2%	0
COc1ccc(C(CNC(=O)C(C)Oc2ccc(Br)cc2)N2CCCCC2)cc1 (configuration not stated)	-5.0	-6	-6	1.2%	-7

Going on with the list:
SMILES	D2 agonist	D2 PAM	CtBP-E1A blk	TRPML1 agonist	PINK1 modulator	Six1-Eya2 inh
COc1ccccc1NC(=O)CSc1ccc(-c2ccc(-n3cccn3)cc2)nn1	-5.7	-1	0	1.0	3.4%	-7
C=CCn1c(=N)n(CC(=O)c2cccc([N+](=O)[O-])c2)c2ccccc21	-2.6	-15	3	-1.5	4.4%	0
Cc1cc(NC(=O)CSc2nc3ccsc3c(=O)n2CCCC(=O)NCCc2ccccc2)no1	-1.8	-3	9	0.8	5.8%	8
CSc1nsc(SCC(=O)NCc2ccccc2)n1	-2.1	-18	5	1.0	1.5%	11
Cn1cc(CN2CCCC(CO)(Cc3cccc(Cl)c3)C2)cn1 (configuration not stated)	-6.0	-19	-1	-0.4	1.9%	-1
N#CC1C(=O)NC(=O)CC12CCCCC2 (configuration not stated)	-0.3	-5	2	0.6	-0.1%	3
CCOc1nc(OCC)c2cnn(C)c2n1	0.2	4	3	-0.3	0.9%	15
COC(=O)CNC(c1ccccc1)c1cc(Br)ccc1N (configuration not stated)	-2.3	-1	-4	1.1	5.2%	-7
COC(=O)c1ccccc1N1CCS(=O)(=O)CC1	0.5	-2	-8	0.1	3.2%	6
COCCNC(=O)c1cc(-c2cccnc2)nc2ccc(Br)cc12	-1.4	0	5	0.4	·	3
COc1ccc(C2=CN(Cc3ccccc3)C(c3ccccc3)CC2=O)cc1 (configuration not stated)	-3.9	-3	-1	0.9	-0.4%	-7
Cc1cc(CNC(=O)COc2ccc(F)cc2Cl)cc(C)c1O	-0.1	-3	-8	1.7	0.0%	-10
N#Cc1ccsc1NC(=O)CN1CCN(S(=O)(=O)c2ccc3ccccc3c2)CC1	-2.9	-21	24	-0.2	1.1%	12
Cc1ccc(S(=O)(=O)N(CC(=O)NCC2CCCO2)Cc2cccc(C)c2)cc1 (configuration not stated)	0.0	-10	2	0.3	1.3%	14
O=C(CCCCC(=O)NCCc1ccccc1)NCCc1ccccc1	0.9	-5	1	-0.3	1.1%	9
CC(C)OCCCNC(=O)NC12CC3CC(CC(C3)C1)C2	-1.3	0	3	5.0	0.9%	1
CC(=O)NC(Cc1cccc(F)c1)C(=O)NC1CCN(c2nnnn2-c2ccccc2)CC1 (configuration not stated)	-1.4	-10	·	-0.1	-0.8%	11
Cc1ccccc1NC(=O)Nc1ccccc1Br	-1.3	-14	8	-0.8	1.6%[38.3 µM]	5
CN(C)C(=S)Nc1cccc(-c2n[nH]c(=S)o2)c1	-2.2	-8	9	0.1	3.4%	-6
O=[N+]([O-])c1ccccc1SNc1ccccc1	-1.0	-17	-11	1.0	12%	?
Cc1ccc2c(CN3CCN(Cc4ccccc4)CC3)cc(=O)oc2c1	4.3	-17	-3	2.7	-1.9%	-3
CCC(C)N(CCNC(=O)CC1Oc2ccc(C)cc2NC1=O)C1CCCCC1 (configuration not stated)	-3.6	-5	8	-0.1	-0.9%	0
O=C(Cc1ccsc1)Nc1ccc2c(c1)OCO2	-5.5	-7	·	-0.6	-1.5%	2
COc1ccccc1C(=O)NNC(=O)c1ccc(NS(=O)(=O)c2cccs2)cc1	-5.4	-16	-2	0.0	3.3%	-1
Cn1cc(CN2CCN(CCO)CC2)c(-c2ccc(Oc3ccccc3)cc2)n1	-2.5	-12	10	-0.6	0.2%	-11
O=C(Nc1ccccc1)C(c1ccccc1)c1ccccc1	-2.8	-4	5	3.2	3.6%	13
COC(=O)C1CCN(C(=O)c2cc(=O)[nH]c3ccccc23)CC1	-0.9	2	-15	0.3	0.2%	4

Compound activity as filed in PubChem.
